Bioassay records: PubChem, Johns Hopkins Ion Channel Center
KCNQ2 pot: enhances the rat KCNQ2 potassium channel. B-score at 10 µM. AID 2239. CHO-K1 KCNQ2, FluxOR thallium flux fluorescence; stronger effect = higher value. 0.54% of 310,000 active. O88943;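 active means fluorescence ratio B-score at least 3 SD of library B-scores, with initial fluorescence B-score within 3 SD, cut at about 5.3 in these data; same plate scores as AID 2156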;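 further: B-score of peak minus minimum over baseline fluorescence ratio after K+ and Tl+ stimulus; positive B-score means potentiation of KCNQ2 with more thallium influx and brighter signal; only the inactives scoring about 0 or higher are listed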
Target sequence (O88943 whole entry, looked up): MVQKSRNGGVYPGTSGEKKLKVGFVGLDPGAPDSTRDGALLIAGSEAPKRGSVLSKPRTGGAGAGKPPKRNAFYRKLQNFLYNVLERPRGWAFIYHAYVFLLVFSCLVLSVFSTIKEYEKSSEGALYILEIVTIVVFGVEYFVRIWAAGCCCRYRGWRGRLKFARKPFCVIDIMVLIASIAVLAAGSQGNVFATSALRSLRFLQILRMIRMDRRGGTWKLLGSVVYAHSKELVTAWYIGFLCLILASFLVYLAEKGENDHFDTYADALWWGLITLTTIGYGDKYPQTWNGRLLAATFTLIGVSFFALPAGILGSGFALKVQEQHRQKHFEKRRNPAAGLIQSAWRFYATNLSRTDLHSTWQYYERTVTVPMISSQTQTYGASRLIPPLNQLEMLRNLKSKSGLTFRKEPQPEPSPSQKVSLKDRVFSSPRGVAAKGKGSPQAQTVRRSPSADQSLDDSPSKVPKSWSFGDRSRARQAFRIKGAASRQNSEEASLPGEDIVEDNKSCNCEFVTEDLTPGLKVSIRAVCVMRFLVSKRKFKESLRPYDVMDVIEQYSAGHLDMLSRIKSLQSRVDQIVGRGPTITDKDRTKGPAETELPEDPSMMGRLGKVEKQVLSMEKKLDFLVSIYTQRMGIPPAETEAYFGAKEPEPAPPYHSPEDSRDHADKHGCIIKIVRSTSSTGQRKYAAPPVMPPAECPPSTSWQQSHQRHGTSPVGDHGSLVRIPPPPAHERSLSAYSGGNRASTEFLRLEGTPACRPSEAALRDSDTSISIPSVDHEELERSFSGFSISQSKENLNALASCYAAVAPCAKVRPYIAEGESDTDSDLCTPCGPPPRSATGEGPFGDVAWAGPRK
KCNQ2 pot baseline: recorded beside KCNQ2 pot, whose call it bears; B-score; compound at 10 µM; measured here: initial fluorescence intensity artifact check;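 brightness before thallium and not channel activity; 0 = typical well and far values either way flag optical interference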
Active calls of the source: *. The list is partial; the hit share may differ from the screen's.

A first look, 2 compounds:
(1) COCCNC(=O)C(OC(=O)C1=Cc2ccccc2OC1)C(C)C (centres undefined)
(2) O=C(Nc1ccc2c(c1)OCCO2)c1ccncc1
assay / compound | 1 | 2
KCNQ2 pot | 0.15 | 0.7
KCNQ2 pot baseline | -0.01 | 0.31

The listing, from the start:
(1) COCCNC(=O)C(OC(=O)C1=Cc2ccccc2OC1)C(C)C (centres undefined)
(2) O=C(Nc1ccc2c(c1)OCCO2)c1ccncc1
(3) CCc1nn2c(N3CCOCC3)cc(C)nc2c1-c1ccc(F)cc1
(4) CCOC(=O)C1CCCN(c2c(N3CCOCC3)c(=O)c2=O)C1 (centres undefined)
(5) O=C1[C@@H]2[C@@H]3C[C@@H]([C@H]4ON=C(c5ccc(Cl)cc5)[C@@H]34)[C@@H]2C(=O)N1c1ccc2c(c1)OCO2
(6) CCN(CC)CCCNC(=O)c1cc2c(=O)n(CC)c3ccccc3c2s1
(7) CCC(C)C(NC(=O)/C(=C\c1ccccc1)NC(=O)c1ccc(OC)cc1)C(=O)O (centres undefined)
(8) CCCCN=C(C)c1c(O)c2ccccc2oc1=O
assay / compound | 1 | 2 | 3 | 4 | 5 | 6 | 7 | 8
KCNQ2 pot | 0.15 | 0.7 | 0.42 | 0.04 | 0.62 | 0.4 | 1.5 | 1.4
KCNQ2 pot baseline | -0.01 | 0.31 | -0.81 | -0.52 | -0.83 | 0.98 | -0.68 | -2.7

(9) COc1cccc2cc(C(=O)c3ccc([N+](=O)[O-])cc3)oc12
(10) Cc1cccc(/C=N/NC(=O)c2ccc3c(c2)OCCO3)c1O
(11) Cc1ccc(CNC(=O)Cn2c(=O)n(CC(=O)N3CCCCC3)c(=O)c3sccc32)cc1
(12) CN(NS(C)(=O)=O)c1c(C#N)c(C(F)(F)F)nn1C
(13) CCN(CC)c1ccc(C(=O)c2ccccc2C(=O)O)c(O)c1
(14) N#Cc1cccc(C(c2nnnn2Cc2ccccc2)N2CCCC2)c1 (centres undefined)
(15) O=C(CSc1nc(Nc2ccccc2)nc(N2CCOCC2)n1)Nc1cc(Cl)ccc1O
(16) Cc1ccc(NC(=O)CCC(=O)O)cc1F
assay / compound | 9 | 10 | 11 | 12 | 13 | 14 | 15 | 16
KCNQ2 pot | 0.09 | 0.73 | 0.41 | 1.9 | 0.89 | 0.22 | 0.57 | 2.2
KCNQ2 pot baseline | -1.3 | -0.57 | 0.7 | -0.55 | -0.78 | -0.23 | -0.03 | -1.2

(17) Cc1nn(C)c(C)c1/C=N/NC(=O)CCn1cc([N+](=O)[O-])cn1
(18) COc1ccccc1-c1ccc(SCC(=O)NCc2ccc3c(c2)OCO3)nn1
(19) COc1ccc(Cc2nnc(NC(=O)c3ccc(OC)c(OC)c3)s2)cc1OC
(20) COC(=O)c1ccc(NC(=O)c2ccc3nccnc3c2)cc1
(21) Cc1ccc(CNS(=O)(=O)c2ccc(-c3cnc(C4CC4)o3)cc2)cc1
(22) COc1ccc(/C(N)=C/C(=O)C(C)(C)C)cc1
(23) O=C(O)CCCc1ccc2c(c1)CCc1ccccc1-2
(24) COc1cc2c(cc1OC)CN(CC(=O)Nc1ccc(S(=O)(=O)N(C)C)cc1)CC2
assay / compound | 17 | 18 | 19 | 20 | 21 | 22 | 23 | 24
KCNQ2 pot | 0.01 | 0.98 | 1.6 | 1.1 | 0.18 | 2.1 | 1.3 | 1.1
KCNQ2 pot baseline | -0.18 | 2.1 | 0.22 | -0.01 | -0.86 | -0.62 | 0.23 | 0.61

Four entries out of the list above, arranged by their value in KCNQ2 pot baseline, lowest first.
cpd	compound	KCNQ2 pot	KCNQ2 pot baseline
21	Cc1ccc(CNS(=O)(=O)c2ccc(-c3cnc(C4CC4)o3)cc2)cc1	0.18	-0.86
19	COc1ccc(Cc2nnc(NC(=O)c3ccc(OC)c(OC)c3)s2)cc1OC	1.6	0.22
23	O=C(O)CCCc1ccc2c(c1)CCc1ccccc1-2	1.3	0.23
24	COc1cc2c(cc1OC)CN(CC(=O)Nc1ccc(S(=O)(=O)N(C)C)cc1)CC2	1.1	0.61

Following part:
(25) CC(C)C1Cc2c(sc3c2c(=O)n(-c2ccccc2)c2n[nH]c(=S)n32)CO1 (centres undefined)
(26) O=C(CCCC(=O)N(CC(=O)NC1CCCC1)Cc1ccccc1Cl)Nc1ccccn1
(27) CCC(C)NC(=O)CCC(=O)Nc1ccc2nc(N3CC(C)CC(C)C3)cc(C)c2c1 (centres undefined)
(28) Cc1ccc(C)c(Nc2nc(N)c3ccccc3n2)c1
(29) O=C(c1cc([N+](=O)[O-])ccc1N1CCOCC1)N1CCN(c2ccccc2)CC1
(30) CNS(=O)(=O)c1cccc(C(=O)NNC(=O)CN(C)S(=O)(=O)c2ccc(Cl)cc2)c1
(31) CC(=O)c1ccc(NC(=O)CC(NCCC2=CCCCC2)C(=O)O)cc1 (centres undefined)
(32) CCn1nnnc1SCC(=O)Nc1sc(C)c(C)c1C#N
assay / compound | 25 | 26 | 27 | 28 | 29 | 30 | 31 | 32
KCNQ2 pot | 1.9 | 0.01 | 1.2 | 1.5 | 0.62 | 0.02 | 0.6 | 0.06
KCNQ2 pot baseline | -0.95 | 0.14 | 0.5 | 0.51 | 0.54 | -0.47 | 0.75 | 1.8

(33) COc1ccc(S(=O)(=O)N(CC(=O)N/N=C/c2ccc(C(=O)O)cc2)Cc2ccccc2)cc1OC
(34) CC(C)(C)c1ccc(-c2noc(CCC(=O)N3CCOCC3)n2)cc1
(35) O=c1[nH]c2cc3c(cc2cc1CN(CC1CCCO1)S(=O)(=O)c1ccc(Cl)cc1)OCCO3 (centres undefined)
(36) CC(=O)Nc1cccc(C(=O)OCC(=O)c2ccccc2Cl)c1
(37) Cc1ccccc1OCC(=O)NNC(=O)c1cc(S(=O)(=O)N2CCOCC2)ccc1N1CCCC1
(38) CCOC(=O)C(NC(=O)NCc1ccccc1OC)(OCC)C(F)(F)F (centres undefined)
(39) CCOC(=O)N1CCC(N2CC34C=CC(O3)C(C(=O)O)C4C2=O)CC1 (centres undefined)
(40) CC(=O)Nc1cccc2c1C(=O)NC2=O
assay / compound | 33 | 34 | 35 | 36 | 37 | 38 | 39 | 40
KCNQ2 pot | 0.05 | 0.56 | 1.1 | 0.35 | 0.19 | 0.46 | 1.3 | 0.62
KCNQ2 pot baseline | 0.07 | -0.23 | -0.01 | 0.06 | 1.9 | -0.11 | 0.05 | -1.6

Laid out differently: results already given.
#34 CC(C)(C)c1ccc(-c2noc(CCC(=O)N3CCOCC3)n2)cc1
  KCNQ2 pot = 0.56
  KCNQ2 pot baseline = -0.23

#36 CC(=O)Nc1cccc(C(=O)OCC(=O)c2ccccc2Cl)c1
  KCNQ2 pot = 0.35
  KCNQ2 pot baseline = 0.06

#33 COc1ccc(S(=O)(=O)N(CC(=O)N/N=C/c2ccc(C(=O)O)cc2)Cc2ccccc2)cc1OC
  KCNQ2 pot = 0.05
  KCNQ2 pot baseline = 0.07

#35 O=c1[nH]c2cc3c(cc2cc1CN(CC1CCCO1)S(=O)(=O)c1ccc(Cl)cc1)OCCO3 (centres undefined)
  KCNQ2 pot = 1.1
  KCNQ2 pot baseline = -0.01

The list goes on:
(41) COC(=O)c1ccc(NC(=O)C2CCCN(S(C)(=O)=O)C2)cc1 (centres undefined)
(42) CSc1sc(C(=O)NCC2CC2)c(-c2cccs2)c1C#N
(43) Nc1cc(=O)nc(SCC(=O)NCc2ccccc2)n1CCc1ccccc1
(44) Cn1c(=O)[nH]c(=O)c2c1nc(N1CCN(CCO)CC1)n2CCSc1nc2ccccc2s1
(45) COc1ccc(-n2c(N)c(C(=O)NCc3ccco3)sc2=S)cc1
(46) CN(C)S(=O)(=O)c1ccc(Cl)c(NC(=O)COC(=O)c2ccc(O)cc2)c1
(47) Cn1nc(-c2ccc(C(=O)Nc3ccc(F)cc3)cc2)c2ccccc2c1=O
(48) COc1ccc(S(=O)(=O)N2CCC(C(=O)NCCN3CCOCC3)CC2)cc1
assay / compound | 41 | 42 | 43 | 44 | 45 | 46 | 47 | 48
KCNQ2 pot | 0.2 | 0.05 | 1 | 0.71 | 0.56 | 0.16 | 1.8 | 0.63
KCNQ2 pot baseline | -2 | -0.19 | 0.98 | 0.01 | -1.3 | 0 | -0.2 | -0.29

(49) Cc1ccc(NC(=O)Nc2ccc(F)c(Cl)c2)cc1
(50) CC1(C)CC(NC(=O)c2ccc(Cl)cc2)CC(C)(C)N1
(51) CCc1nc2nc(C)c(NS(=O)(=O)c3ccc(Cl)cc3)c(=O)n2[nH]1
(52) CC1Cc2ccccc2N1CC(=O)NC(=O)NCc1ccccc1 (centres undefined)
(53) CSc1ncccc1C(=O)N1CCCC(C(=O)c2cc(F)ccc2F)C1 (centres undefined)
(54) COC(=O)c1cc(Nc2cc(C)c3c(O)cccc3n2)cc(C(=O)OC)c1
(55) Cc1cc(=O)[nH]c(SCC(=O)c2ccc(C(C)C)cc2)n1
(56) COc1c2ccoc2c(OC(C)=O)c2oc(C)cc(=O)c12
assay / compound | 49 | 50 | 51 | 52 | 53 | 54 | 55 | 56
KCNQ2 pot | 2 | 1.3 | 0.85 | 0.67 | 0.63 | 0.82 | 1.8 | 0.37
KCNQ2 pot baseline | -2.1 | -0.03 | -0.71 | 0.4 | 0.13 | 1.4 | 0.01 | -1.8

(57) CCc1nc(N[C@H](C(=O)O)C(C)C)c2oc3ccccc3c2n1
(58) CCOc1ccc(NC(=O)CN(C)C(=O)c2c(-c3ccccc3Cl)noc2C)cc1OCC
(59) Oc1cccc(C(=S)N2CCN(Cc3ccccc3)CC2)c1
(60) O=c1cc(CNc2cc(C(F)(F)F)cc(C(F)(F)F)c2)nc2sccn12
(61) COc1ccc(OC)c(NC(=O)C2CCCCC2)c1
(62) Cc1cc(C(=O)Nc2cnc3ccccc3c2)ccc1[N+](=O)[O-]
(63) Cc1ccc(OCCNC(=O)c2ccc(NC(=O)CC3SC(N4CCCC4)=NC3=O)cc2)cc1 (centres undefined)
(64) O=[N+]([O-])c1ccc(-c2ncc(-c3ccc(Br)cc3)o2)cc1
assay / compound | 57 | 58 | 59 | 60 | 61 | 62 | 63 | 64
KCNQ2 pot | 0.55 | 0.72 | 0.27 | 0.9 | 4.1 | 0.92 | 0.61 | 0.83
KCNQ2 pot baseline | -0.34 | -0.04 | 0.58 | 0.51 | 0.09 | -1.8 | 1 | 0.54

(65) COC(=O)c1ccc(Cl)c(NC(=O)CN2CCN(C)CC2)c1
(66) CCC(C)NC(=O)CCCc1ccccc1 (centres undefined)
(67) O=C(OCC(=O)N1CCCC1)c1ccc(NS(=O)(=O)c2cccs2)cc1O
(68) CC(NC(=O)N1CCOCC1)c1ccccc1 (centres undefined)
assay / compound | 65 | 66 | 67 | 68
KCNQ2 pot | 0.75 | 0.32 | 0.06 | 0.08
KCNQ2 pot baseline | 0.68 | -0.01 | 2 | 0.86
